2A Renilla: lowers the Renilla signal of an FMDV 2A StopGo reporter; AID 1745857; HEK cells with a luciferase reporter of 2A StopGo recoding; actives 0.32% (n = 120,000); Potency, µM (titrated, usually from 57.5 µM), without a hit: top-dose signal change, negative = less light; active means well fitted falling curve with a large enough effect; inconclusive means small, poorly fitted or top-dose-only effect; inactive means no such curve, though single readings can be large or run the other way; note: nearly all actives have a fitted effect of over 55% in size; overnight with compound
2A firefly: lowers the firefly signal of an FMDV 2A StopGo reporter; Potency, µM (top dose mostly 57.5 µM), for the others: top-dose signal change, negative = less light; AID 1745856; actives 0.23% (n = 120,000); HEK cells with a luciferase reporter of 2A StopGo recoding; active = well fitted falling curve with a large enough effect; inconclusive = small, poorly fitted or top-dose-only effect; inactive = no such curve, though single readings can be large or run the other way; note: nearly all actives have a fitted effect of over 60% in size; overnight with compound
An asterisk follows results filed as active; ? = inconclusive; & = joins results of further samples; [ ] = another dose, or the depositor's remark. % is set by controls: 0 for no effect and ±100 for the full control effect; potency is the fitted concentration of half-maximal effect. The list is partial. The share of hits here may be higher or lower than overall.

entry	Structure	2A Renilla	2A firefly
1	Cc1cccc(N2CCN(C(=O)c3cccn3-c3nnc(N4CCCCC4)s3)CC2)c1C	-14.5%	-21.6%
2	COCCn1c(CCC(=O)Nc2ccc(F)c(F)c2)nc2c1c(=O)[nH]c(=O)n2CC(C)C	12.1%	-5.0%
3	CC(=O)c1ccc(NC(=O)CSc2nnc(-c3ccncc3)n2-c2ccccc2)cc1	2.7%	-13.3%
4	CCn1c(C)cc(C(=O)CSc2nnc(CN3CCOCC3)n2-c2ccccc2)c1C	4.0%	-7.6%
5	COc1ccc(OC)c(NC(=O)CSc2cn(CC(=O)N3CCCCCC3)c3ccccc23)c1	3.8%	-20.4%
6	CC(C)c1ccc(S(=O)(=O)c2cnc(SCC(=O)Nc3cccc(C(F)(F)F)c3)nc2N)cc1	-8.0%	-25.7%
7	Cc1cc2oc(C(=O)Nc3ccc(S(=O)(=O)N(C)c4ccccc4)cc3)cc(=O)c2cc1C	-11.6%&-3.9%	0.7%&-21.5%
8	CCOc1ccccc1-n1cc2c(c1-c1ccc(OC)cc1)c(=O)n(C)c(=O)n2C	-12.0%	-21.1%
9	CC(C)NC(=O)c1ccc2c(c1)nc1n2CCN(CCc2ccccc2)C1	-9.8%	12.4%
10	C[N+](C)(C)C/C=C1/COCO1	6.8%	-3.7%
11	Cc1ccc(CC(=O)NC(C)C2CCCO2)cc1 (stereo not given)	9.5%	0.0%
12	O=C(O)C1(c2ccc(Br)cc2)CCCCC1	-0.2%	0.0%
13	CCC(C)[C@H](NC(=O)[C@@H]1Cc2ccccc2CN1)C(=O)NC1CCCC1 (stereo not given in full)	-19.2%	-9.0%
14	Cc1ccc(S(=O)(=O)NCC(c2cccnc2)S(=O)(=O)c2ccccc2)cc1 (stereo not given)	105.9%[activator]	-1.0%
15	COC(=O)CSc1nc2c(c(=O)n(C)c(=O)n2C)n1Cc1ccccc1Cl	8.3%	20.5%
16	O=C(COC(=O)c1cc(=O)c2ccccc2o1)Nc1ccc(F)c(F)c1	-7.1%	-2.7%
17	COc1cc(C(=O)Nc2sc3ccccc3c(=O)c2-c2ccc3c(c2)OCO3)cc(OC)c1OC	-13.1%	67.0%[activator]
18	COc1cccc2c1OC1(CCN(C)CC1)N1N=C(c3ccccc3)CC21 (stereo not given)	25.2%	216.2%[activator]
19	Cn1cnc2c1c(=O)n(CCCSCc1ccccc1Cl)c(=O)n2C	2.6%	4.6%
20	CCOc1ccc(CNC(=O)c2ccc(CSc3nc4ccncc4n3Cc3ccc(F)cc3)cc2)cc1	-17.6%	-10.0%
21	Cc1occc1-c1nnc(SC(C(=O)N2CCCC2)c2ccccc2)n1-c1ccccc1 (stereo not given)	7.7%	-11.3%
22	Cc1ccc(C(=O)NCCc2csc(-c3cccc(F)c3)n2)cc1C	8.4%	2.6%
23	CCOC(=O)NNc1ccc(N(CC)CC(C)O)nn1 (stereo not given)	-16.6%	-9.9%
24	Cc1cc2nc(-c3ccccc3)c(-c3ccccc3)nc2cc1C	25.9%	64.9%[activator]
25	Cc1ccc(-c2cc(C(F)(F)F)n3nc(C(=O)NCC45CC6CC(CC(C6)C4)C5)cc3n2)cc1	-12.2%	-4.9%

Complete entries, looked up by structure. Order of values: 2A Renilla	2A firefly
CCn1c(C)cc(C(=O)CSc2nnc(CN3CCOCC3)n2-c2ccccc2)c1C across the screens: 4.0%	-7.6%
O=C(COC(=O)c1cc(=O)c2ccccc2o1)Nc1ccc(F)c(F)c1 across the screens: -7.1%	-2.7%

Additional results
entry	Structure	2A Renilla	2A firefly
26	CCCc1noc(CCC(=O)NC(C)c2ccc(C)o2)n1 (stereo not given)	-6.3%	7.3%
27	Clc1cccc(-c2noc(CSc3nnc(C4CC4)n3-c3ccccc3)n2)c1	-11.9%	-9.2%
28	Cc1ccc(NC(=O)c2ccc(-c3nn(C)c(=O)c4ccccc34)cc2)c(C)c1	18.7%	14.7%
29	COCCNS(=O)(=O)c1cc(-c2nn(C)c(=O)c3ccccc23)ccc1C	274.8%[activator]	49.2%[activator]
30	CCOc1ccc(N2CC(NC(=O)c3ccc4c(c3)OCO4)CC2=O)cc1 (stereo not given)	-12.6%	-17.7%
31	Cc1c(Cl)cccc1NC(=O)CCS(=O)(=O)c1ccc2c(c1)oc(=O)n2C	-8.9%	-11.4%
32	Cc1ccc(C(=O)c2oc3ccccc3c2NC(=O)c2cc(-c3ccccc3)on2)cc1F	-9.7%	-11.0%
33	COc1ccc(C(=O)C(C)OC(=O)c2ccc(OCC3CCCO3)cc2)cc1 (stereo not given)	7.3%	107.4%[activator]
34	COc1cc(C(=O)OC23CC4CC(C2)C(=O)C(C4)C3)cc(OC)c1OC	18.2%	11.0%
35	Cc1c(C(=O)N2CCCC2)oc2c1-c1nn(CC(=O)NCc3cccc(Br)c3)cc1CC2	39.6%[activator]	-3.0%
36	Cc1nc2ccn(Cc3ccco3)c(=O)c2cc1C(=O)N1CCN(c2ccccc2F)CC1	12.9%	-16.6%
37	Cc1ccc(S(=O)(=O)NCC(c2ccc(N(C)C)cc2)N2CCOCC2)cc1 (stereo not given)	17.6%	-16.3%
38	CCOc1ccc(NS(=O)(=O)c2ccc(C(=O)NC3CCN(CC)CC3)cc2)cc1	-3.3%	-14.1%
39	COc1ccccc1Nc1nc(-c2sc(NC(C)=O)nc2C)cs1	25.0%	0.0%
40	N#Cc1ccc(CS(=O)(=O)NCc2ccccc2)cc1	?	32.2%[activator]
41	CC1CC(C)CN(CC(=O)O)C1 (stereo not given)	11.2%	22.6%
42	CC(Sc1c(Cl)cccc1Cl)C(=O)NC(N)=O (stereo not given)	16.0%	3.1%
43	Cc1ccc(NC(=O)C2CCN(S(=O)(=O)c3ccc4c(c3)CCCN4C(=O)C3CCC3)CC2)cc1	-5.3%	-15.5%
44	COc1ccc(C(=O)OCc2nc(-c3ccc(F)cc3)no2)cc1S(=O)(=O)N1CCCCC1C (stereo not given)	-4.9%	10.5%
45	COc1cccc(OC)c1C(=O)NCCc1sc(-c2cccc(F)c2)nc1C	20.3%	15.1%
46	CNCCN(C)C1CCCCC1	0.5%	6.7%
47	CCOC(=O)c1cnc2ccc(OC)cc2c1Nc1ccc(C(C)=O)cc1	24.0%	-11.2%
48	Cc1cc(NC(=O)CN2CCC(C)CC2)nc2c1c(=O)oc1ccccc12	-9.6%	-28.7%
49	CCCOc1c(Br)cc(C(=O)Oc2cc(C(=O)OC)cc(C(=O)OC)c2)cc1OC	6.3%	-11.6%
50	CCOP(=O)(OCC)c1nc(-c2cccc3ccccc23)oc1NC	12.1%	2.7%
51	CCOC(=O)Cc1csc(NC(=O)c2nc(C)n(-c3ccc(Cl)cc3)n2)n1	-10.8%	6.6%
52	CSC1=N/C(=C\c2ccc(-c3ccc(Cl)cc3)o2)C(=O)S1	-7.2%	17.9%
53	CCOC(=O)c1c(-c2ccc(C)cc2)csc1NC(=O)c1cc(-c2ccc(Cl)cc2)on1	-19.0%	26.5%
54	Cc1ccc(CNC(=O)CN2C(=O)C3(SCC(=O)N3c3ccc(F)cc3)c3ccccc32)cc1 (stereo not given)	16.0%	-5.7%
55	O=C1C2CCCN2C(=O)N1Cc1coc(-c2cccc(F)c2)n1 (stereo not given)	5.0%	174.2%[activator]
56	O=C(CCNc1ccc(F)cc1)c1cc2ccccc2o1	0.5%	31.9%[activator]
57	CCCCCCc1ccc(Nc2ccccc2)cc1O	31.2%[activator]	0.0%
58	CCCNC(=O)CN1CCN(c2cccc(F)c2C#N)CC1	2.1%	1.9%
59	O=C(c1ccc(-n2cccn2)cc1)N1CCCC1c1ccc2c(c1)OCCO2 (stereo not given)	17.9%	-8.0%
60	CN(CC(=O)NC(C)(C)C)C(=O)c1cc(=O)[nH]c2ccccc12	-10.7%	-16.5%
61	Cc1ccc(S(=O)(=O)N2CCCC2C(c2ccccc2O)c2cn(C)c3ccccc23)cc1 (stereo not given)	13.8%	6.8%
62	CCCCCOc1ccc(NC(=O)Cn2c(-c3nonc3N)nc3ccccc32)cc1	-15.0%	-20.8%
63	Cc1ccc(NC(=O)c2cccn2-c2nnc(N3CCCCC3)s2)cc1Cl	14.6%	10.9%
64	CS(=O)(=O)N(CC(=O)Nc1ccc(S(=O)(=O)N2CCOCC2)cc1)c1cccc(F)c1	15.1%	-7.7%
65	O=C(Nc1ccc(SC2CCCC2)cc1)C1CC=CCC1 (stereo not given)	57.1%[activator]	153.0%[activator]
66	CCOc1ccc2c(c1)cc(C(=O)Nc1ccccc1OCC)n2C	0.0%	0.0%
67	Cc1cc(Nc2ccc(Br)cc2)nc(C)n1	-3.1%	99.1%[activator]
68	CCCCC1CCC(C(=O)NC(C(=O)O)C(C)C)CC1 (stereo not given)	5.7%	20.4%
69	CCn1cc(CN(C)C(=O)Cn2nc(C(F)(F)F)c(Cl)c2C)c(C)n1	-17.4%	-6.1%
70	COc1cc(NC(=O)C2CCN(C(=O)c3sc4nc[nH]c(=O)c4c3C)CC2)cc(OC)c1OC	-2.2%	-7.4%
71	O=C(NCC(=O)N(Cc1cccs1)C1(C(=O)NC2CCCCC2)CCCCC1)c1ccccc1	72.3%[activator]	-9.4%
72	Cc1nn(-c2ccccc2)cc1C(=O)N1CCC(CC(=O)NCc2cccnc2)CC1	-12.7%	-6.9%
73	O=C(COc1ccc(Cl)cc1)Nc1ccc2oc(-c3ccccc3)nc2c1	7.3%	0.0%
74	Cc1nc2cc(NC(C)c3nc(C(C)(C)C)no3)ccc2o1 (stereo not given)	-0.2%	11.9%
75	CC1=C(C(=O)Nc2cccc(C(F)(F)F)c2)C2(CCCCC2)OC1=O	-10.8%	0.0%

Following part
entry	Structure	2A Renilla	2A firefly
76	COc1ccc2c(c1)c1c(c(=O)n(-c3ccccc3C)c(=O)n1C)n2C	-19.2%	-17.7%
77	CCOc1ccc(-c2nc(Cn3c(=O)cc(C)c4c(C)nn(-c5ccc(C)cc5)c43)c(C)o2)cc1	2.6%	36.0%[activator]
78	CC1CN(C(=O)N2CCC(C(=O)NCc3ccccc3F)CC2)c2cc(Cl)ccc2O1 (stereo not given)	50.1%[activator]	12.2%
79	Cc1cn2c(=O)cc(COc3ccc(NC(=O)COc4ccccc4)cc3)nc2s1	-9.1%&-4.6%	-0.6%&-0.6%
80	COc1ccccc1NC(=O)Cn1c(=O)n(-c2cccc(C)c2)c(=O)c2c1c1cc(C)ccc1n2C	-2.6%	-9.4%
81	O=C(O)C/C(=C/c1cccc(O)c1)c1nc2ccccc2o1	-1.1%	121.7%[activator]
82	CCC(C)NC(=O)c1nn(-c2ccc(C)cc2)c(=O)n(C)c1=O (stereo not given)	-2.3%	-7.0%
83	CCCNC(=O)c1ccc(NC(=O)c2ccncc2)cc1	-11.7%	6.6%
84	Fc1ccc(-c2csc(NCC3CCCO3)n2)cc1 (stereo not given)	4.4%	220.4%[activator]
85	O=C(NC1CCCC1)c1ccc(CSc2nc3ccncc3n2Cc2ccccc2F)cc1	20.8%	59.3%[activator]
86	CCCc1nc2ccccc2c(C(=O)OC(C)C(=O)NC(N)=O)c1CC (stereo not given)	-0.8%	-4.4%
87	COc1ccc(Nc2oc(-c3ccccc3C)nc2C#N)cc1	64.4%[activator]	0.0%
88	Cc1ccc(NC(=O)C(C)OC(=O)C2=CN3CCS(=O)(=O)N=C3C=C2)cc1 (stereo not given)	-5.8%	-2.5%
89	Cc1cc(Cl)cc(SCC(=O)O)c1Cl	-7.9%	0.0%
90	CCN(C(=O)Cn1nc(-c2ccc(F)cc2)ccc1=O)c1cccc(C)c1	-11.4%	7.1%
91	Cc1ccc(-n2c(C)cc(/C=C(\C#N)C(=O)Nc3ccc(C)c(C)c3)c2C)cc1	-9.0%	24.9%
92	COc1cccc(C(=O)COC(=O)C2CC(=O)N(c3cc(C)ccc3C)C2)c1 (stereo not given)	1.0%	1.6%
93	Cc1ccc2c(c1)CCCN2C(=O)c1n[nH]c(=O)c2ccccc12	-19.9%	-13.3%
94	CSc1cccc(NC(=O)Cc2ccc(Cl)cc2)c1	56.2%[activator]	2.1%
95	CCOc1ccc(OCC)c(NC(=O)c2cc(S(=O)(=O)N3CCc4ccccc43)cn2C)c1	1.8%	-17.5%
96	CC(=O)N1c2c(cc(Br)cc2S(=O)(=O)N2CCN(c3cc(C)ccc3C)CC2)CC1C (stereo not given)	-3.3%	-12.9%
97	CCN(CC)S(=O)(=O)c1ccc(NC(=O)COc2ncnc3ccc(Br)cc23)cc1	13.6%	-7.6%
98	CC(C)(C)NC(=O)c1ccc(NC(=O)c2ccc(Cl)cc2Cl)cc1	16.3%	17.0%
99	Cc1nn(-c2cccc(Cl)c2)c2nc(-c3cccnc3)cc(C(F)(F)F)c12	-4.9%	-8.8%
100	CC(c1ccccc1)N(C)C(=O)CCCc1c[nH]c2ccccc12 (stereo not given)	38.1%[activator]	0.0%
101	CCC(Oc1ccccc1)C(=O)Nc1cc(-c2ccccc2OC)nn1-c1ccccc1 (stereo not given)	16.7%	7.1%
102	Cc1nc2cccnc2n1C1CCN(S(=O)(=O)c2ccc(C(C)C)cc2)CC1	40.6%[activator]	?
103	COc1cc2cc(C(=O)NCC(=O)Nc3ccc4c(c3)OCO4)[nH]c2c(OC)c1OC	16.8%	18.9%
104	Cc1nn(C)c2c1c(-c1ccccc1)cc(=O)n2Cc1ccc(F)cc1	2.3%	-2.4%
105	Fc1ccc(NC(=S)NCCc2cnc[nH]2)cc1	11.1%	15.3%
106	CCCCCNC(=O)C12CC3CC(CC(NC(C)=O)(C3)C1)C2	1.5%	8.5%
107	Cc1ccc(NC(=O)[C@H](CSCc2ccccc2)N2Cc3ccccc3C2=O)cc1	27.6%	0.0%
